Assay outcomes deposited in PubChem by several laboratories.
ugtP null kill – growth inhibition of S. aureus ugtP deletion strain. S. aureus RN4220 ugtP deletion, OD600 growth, 16 h; some inactives read as strong as hits. growth inhibition, % (concentration not given with the values). 330,000 tested, 0.54% active. AID 1259309;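 active means z-score under -3 and OD600 up to 0.15 on both plates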;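 further: plate controls were untreated wells for no effect and antibiotic for full effect; wells of about 80 µL received 100 nL stock; the first replicate is given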
PrP UTR inh – inhibition of PrP 5' UTR reporter expression | cell-based PrP 5' UTR mRNA reporter, plate reader | inhibition, % (no concentration beside the values) | 340,000 tested, 0.35% active;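 active means every replicate at 50% or more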;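 further: 0 = median of the neutral control wells; tested in H4 reporter cells; numbers are from one replicate; inactives centre near -14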
BJeLR viability – kills HRASV12-expressing BJeLR cells | 300,000 tested, 0.17% active | BJeLR (HRASV12) viability, CellTiter-Glo ATP luminescence, 48 h; reference of the scale not given here | AID 1554 | inhibition, % (no concentration beside the values);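 active means replicate mean above 50%; inconclusive means above 50% but judged a plate artefact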;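 further: 50 nL library stock added to about 25 µL; numbers are from one replicate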
Bead autofluor – compound fluorescence in toxin protease inhibitor counterscreen; compound autofluorescence counterscreen, microsphere flow cytometry; active compounds read high; fluorescence intensity (test concentration not listed); 360,000 tested, 3.1% active; AID 624483;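 active means at least 3 SD above the mean of all compounds, about 16000 in these data; inconclusive means too few beads counted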;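 further: 100 nL of 1 mM stock went into each well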
Sa RN4220 lethal – kills Staphylococcus aureus RN4220; S. aureus RN4220 growth, OD600, 16 h; inhibition, % (no concentration beside the values); 330,000 tested, 0.33% active;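 active means z-score of -3 or lower and OD600 up to 0.18 on both plates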;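 further: plate controls were untreated cells for no effect and reference antibiotic for full effect; stock transfer was 100 nL into about 80 µL; one replicate is shown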
Mtb hypoxia inh – Mtb hypoxia fluorescent reporter inhibition | M. tuberculosis hypoxia-regulated fluorescent reporter, fluorescence | fluorescence inhibition, % (test concentration not listed) | 300,000 tested, 0.1% active | AID 1159583;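 active means 35 to 45% if threefold the growth effect, above 45% if 1.5-fold the growth effect; inactive means the rest, general growth blockers included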;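 further: wells of about 50 µL received 100 nL stock; 0% = vehicle wells and 100% = reference inhibitor wells; whole bacteria with a GFP reporter of the hypoxia response; strong numbers were not always called active; many hits fall short of the cut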
Mtb hypoxia inh growth – second read-out of Mtb hypoxia inh, no call of its own (marks repeat the call); growth inhibition, %; measured here: M. tuberculosis growth (absorbance);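 0% = vehicle and 100% = reference antibiotic; read after six days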
The depositor's hits bear a star; ? = inconclusive; . = no result given; & = joins results of further samples.

SMILES	ugtP null kill	PrP UTR inh	BJeLR viability	Bead autofluor	Sa RN4220 lethal	Mtb hypoxia inh	Mtb hypoxia inh growth
O=C(CN1C(=O)c2ccccc2C1=O)Nc1nc(-c2cccc([N+](=O)[O-])c2)cs1	2	.	6	.	-1.6	-2	-4
c1ccc(-n2ncc3c(NCC4CCCO4)ncnc32)cc1 (configuration not stated)	-1	-72	-2	4855	1.9	.	.
CSCCC(NC(=O)C12CC3CC(CC(C3)C1)C2)C(=O)OCC(=O)c1ccc(C)cc1 (configuration not stated)	4	6	-3	2054	2.0	2	9
N#CC(=NO)c1nc(-c2ccccc2)cs1	10&-8	.	.	.	18&3.1	8&-3	2&3
COc1ccc(/C=C/C(=O)OCC(=O)Nc2ccc(S(N)(=O)=O)cc2)cc1OC	-4	-23	1	4632	3.5	7	9
Cc1ccc(-c2n[nH]c(=O)c3ccccc23)cc1S(=O)(=O)NCCN1CCOCC1	3	-28	-6	3844	-0.3	11	5
COc1ccc(CNC(=O)COC(=O)CCc2c[nH]c3ccccc23)cc1	7	4	2	3300	1.2	10	14
COc1ccc(S(=O)(=O)c2c(O)c3ccc(C(=O)Nc4ccccc4F)cc3[nH]c2=O)cc1	-2	-10	0	4026	-1.1	5	0
COc1ccccc1NC(=O)Nc1ccc2c(c1)OCCO2	-8	-66	5	9310	-2.9	-7	2
Cc1n[nH]c(=O)c2c(NC(=O)CSc3cc(Cl)ccc3Cl)oc(C)c12	5	.	.	5541	3.3	7	5
Cc1ccc(Nc2cc(C)nc(-c3ccccc3)n2)cc1	34	-39	4	3343	-12	6	5
COc1ccc(NC(=O)NC2CCCc3ccccc32)cc1OC (configuration not stated)	-4	-19	-5	5847	-2.8	8	-10
CCN(Cc1ccccc1)S(=O)(=O)c1ccc(S(=O)(=O)N2CCN(CCC#N)CC2)cc1	6	-11	-5	5852	0.6	.	.
CCOC(=O)C1CCN(CC(O)COC(CC)c2ccccc2)CC1 (configuration not stated)	4	-26	-6	5199	3.0	3	8
CCOC(=O)C1C2COc3cc(OC)ccc3C2N2C(=O)N(c3cccc(C)c3)C(=O)[C@@]12C (some centres not stated)	-13	.	.	.	8.0	-4	0
O=C(OC1CSc2nc3ccccc3n2C1)c1ccco1 (configuration not stated)	0	-26	1	21891*	4.5	9	10
Cc1nn(C)c(N)c1-c1ccccc1	3	-22	9	3999	7.8	1	-3
CC(=O)Nc1ccccc1-c1nc2cc(C#N)c(C#N)cc2[nH]c1=O	4	-21	-3	3517	2.4	18	8
Cc1ccc(C(=O)CSc2nnc(C3CC3)n2C2CC2)s1	2	-44	.	3275	1.9	-2	4
CCNC(=S)N(CCc1c(C)[nH]c2ccc(C)cc12)Cc1cc(OC)c(OC)c(OC)c1	11	-7	-2	4415	0.1	3	9
CCCCS(=O)(=O)N1CCCC(C(=O)Nc2ccc3c(c2)CCC3)C1 (configuration not stated)	-8	-18	1	4653	-1.9	-5	0
O=c1nc(SCc2ccc(Cl)cc2)nc(-c2ccccc2)[nH]1	7	-8	2	3705	-25	-3	2
CC(C)C[C@H](NC(=O)[C@@H]1Cc2c([nH]c3ccccc23)C2c3ccccc3C(=O)N21)C(=O)N1CCC[C@@H]1C(=O)O (some centres not stated)	1	-13	0	5449	-0.2	.	.
Cc1nnc(NC(=O)CC(NC(=O)C(F)(F)F)c2ccccc2)s1 (configuration not stated)	0	-7	-3	2462	4.5	-2	8
COCCN(C(=O)CCC(=O)Nc1ccccn1)C(C(=O)NCCC(C)C)c1ccc(F)cc1 (configuration not stated)	15	-14	5	3916	3.7	-3	3
CCCCOC(=O)Nc1sc2c(c1C(=O)OC)CCC2	92*	-21	1	10168	6.5	2	6
O=S(=O)(NC1CCCC1)OCC(Cl)(Cl)Cl	-1	-21	-2	2883	4.0	2	-6
CC(/C=N/NC(=O)c1ccccc1F)=C\c1ccccc1	.	-100	3	6308	.	.	.
CCN(CC)S(=O)(=O)c1ccc2c(c1)[nH]c(=S)n2CC	3	-43	-14	3332	3.7	16	9
O=C(COC(=O)C1=COCCO1)Nc1ccc2c(c1)OCO2	-1	-14	-6	3346	4.5	4	6
COc1ccc(C(=O)N2CCN(c3ncccn3)CC2)cc1	-1	-2	2	3248	0.1	5	-3
Cc1ccsc1CCNC(=O)C1CCC(=O)N(CCc2cccc(F)c2)C1 (configuration not stated)	1	-67	-5	5768	2.8	3	12
COc1ccc(C=NOCC(=O)NCc2cccs2)c(OC)c1	7	.	.	.	0.4	4	-2
CN(CC(=O)Nc1ccc(Cl)cc1)C(=O)c1cccc(S(=O)(=O)N(C)C)c1	4	-25	7	2528	1.0	11	3
Cc1cc(-n2c(C)cc(C(=O)COc3ccc(Cl)cc3C(N)=O)c2C)no1	1	-5	.	5880	5.0	-8	0
OCCC1CN(Cc2nc3ccccc3s2)CCN1C1CCCC1 (configuration not stated)	5	-9	5	3612	2.8	14	1
COc1cccc(CN(C)CC(=O)Nc2ccccc2C(=O)Nc2ccccc2)c1OC	6	-14	4	4537	-1.6	11	2
Cc1c(Cl)cccc1NC(=O)NCc1ccccn1	6	-20	-6	6317	1.2	-5	-17
O=C(NCc1ccncc1)C(=O)Nc1ccc2c(c1)OCO2	-6	-15	-7	4136	0.8	-1	12
CCCCn1c(-c2nonc2NC(=O)c2ccccc2Cl)nc2ccccc21	0	45	.	4586	4.4	6	-3

A few values from the list.
CCCCOC(=O)Nc1sc2c(c1C(=O)OC)CCC2 in PrP UTR inh: -21
O=S(=O)(NC1CCCC1)OCC(Cl)(Cl)Cl in BJeLR viability: -2

The listing picks up, starting three compounds before the break.
SMILES	ugtP null kill	PrP UTR inh	BJeLR viability	Bead autofluor	Sa RN4220 lethal	Mtb hypoxia inh	Mtb hypoxia inh growth
Cc1c(Cl)cccc1NC(=O)NCc1ccccn1	6	-20	-6	6317	1.2	-5	-17
O=C(NCc1ccncc1)C(=O)Nc1ccc2c(c1)OCO2	-6	-15	-7	4136	0.8	-1	12
CCCCn1c(-c2nonc2NC(=O)c2ccccc2Cl)nc2ccccc21	0	45	.	4586	4.4	6	-3
CC(C)c1ccc2nc(SCC(=O)NCC3CCCO3)c(C#N)cc2c1 (configuration not stated)	11	-12	3	6795	0.0	2	6
CCCCOc1ccc(NC(=O)[C@@H]2CCCN2C(=O)C2CCN(S(=O)(=O)c3ccc(C)cc3)CC2)cc1	3	-28	-7	1939	2.1	-6	-4
COc1ccc(S(=O)(=O)N2CCCCC2)cc1NC(=O)C1CC1	3	-41	.	3852	9.0	15	10
CCOCCCn1c(-c2ccc(Cl)cc2)n[nH]c1=S	0	-14	-2	8930	1.4	6	4
COc1cc(N=Nc2ccc(C(=O)N(C)C)cc2)c(C)cc1N	-2	-25	.	3753	0.1	6	10
CCN1CCN(C(=O)c2ccc(CS(=O)(=O)Cc3ccccc3C)o2)CC1	12	-27	3	4614	-0.2	9	-5
COC(=O)C1=C(C)NC(=S)NC1c1ccc(-c2ccccc2C(=O)OC)o1 (configuration not stated)	12	-26	10	3760	2.7	4	12
O=C(NC(=S)N1CCCc2ccccc21)c1ccc(Cl)cc1	-10	-58	.	6680	0.0	13	4
O=C(N/N=C/c1cc(Br)c(O)c(Br)c1)C1CC1	.	-9	5	3701	.	.	.
O=C(O)c1cccc(N2C(=O)c3cccc4cccc(c34)C2=O)c1	0	-16	-4	3411	4.3	6	4
CSc1ccc(CN(C)CC(=O)Nc2ccc(C)cc2Br)cc1	90*	-4	12	2518	8.3	15	-5
CC(C)(Cc1ccccc1)[N+]([O-])=Cc1ccc(C(F)(F)F)cc1	-9	.	.	.	-1.0	10	4
COc1ccc(CNC(=O)CS(=O)CC(=O)O)cc1OC (configuration not stated)	2	-20	-7	2703	10	1	-5
CCOC(=O)N1CCC(NC(=O)c2ccc3snnc3c2)CC1	-1	-7	1	5474	-1.0	-6	-5
Cc1cccc(-c2noc(CN(C)C(=O)c3ccc4c(c3)OCO4)n2)c1	0	-19	5	3702	5.6	8	0
COc1ccc(C(=O)NC2CCC(O)CC2)cc1S(=O)(=O)NCc1ccc(Cl)cc1 (configuration not stated)	3	10	.	.	2.1	5	-7
O=C(CN1C(=O)C(=O)N(C2CCCC2)C1=O)Nc1ccc(F)cc1F	2	-19	.	6087	2.9	6	-7
O=[N+]([O-])c1ccccc1S(=O)(=O)Oc1ccccc1/C=N/n1cnnc1	.	-5	3	2655	.	.	.
Cc1ccc(CN2CCN(Cc3cnc(N(C)C)s3)CC2CCO)o1 (configuration not stated)	7	-24	-8	4758	3.1	2	-3
O=C(O)C1CC=CCC1C(=O)N1CCc2ccccc21 (configuration not stated)	7	0	3	5077	3.4	18	9

Just Bead autofluor, ugtP null kill and Mtb hypoxia inh, for some of the entries so far:
canonical_smiles	Bead autofluor	ugtP null kill	Mtb hypoxia inh
CC(C)(Cc1ccccc1)[N+]([O-])=Cc1ccc(C(F)(F)F)cc1	.	-9	10
O=C(N/N=C/c1cc(Br)c(O)c(Br)c1)C1CC1	3701	.	.

Next part:
SMILES	ugtP null kill	PrP UTR inh	BJeLR viability	Bead autofluor	Sa RN4220 lethal	Mtb hypoxia inh	Mtb hypoxia inh growth
Cc1ccc(Cl)c2c1NC(=O)C2(O)CC(=O)c1ccc(F)cc1 (configuration not stated)	-5	-13	3	3447	12	.	.
CCCOc1ccccc1C1NC(=O)NC(C)=C1C(=O)OCCOC (configuration not stated)	-10	-22	2	2858	-19	19	-16
COC(=O)N[C@H](c1ccccc1)[C@@]1(C)C[C@@H]1[C@@H](C)C(=O)Nc1ccc2ccccc2c1	.	-12	1	2948	.	.	.
CC(C)(C)c1ccc(S(=O)(=O)N2CCN(C(=O)C3CCC3)CC2)cc1	-4	-17	1	6177	4.8	4	-4
CCOc1cc2c(cc1OCC)C(c1ccc(OC)c(OC)c1)N(c1ccc(C(=O)O)cc1)C(=O)C2 (configuration not stated)	3	-10	.	3156	4.5	10	3
C[C@H]1COC(=O)[C@H](NC(=O)OCC2c3ccccc3-c3ccccc32)C/C=C\C[C@H](CC(=O)N(CCO)Cc2ccccc2)C(=O)N1	-1	-13	.	3834	-2.1	3	12
O=[N+]([O-])c1ncccc1OCc1ccc(-c2ccccc2)cc1	89*	-20	1	7202	-1.1	-13	0
Cc1ccc(S(=O)(=O)N2CCN(C(=O)COC(=O)c3cccnc3Cl)CC2)c(C)c1	3	5	.	8908	1.8	-7	-6
O=[N+]([O-])c1ccc(Cl)c(C=Nn2c(-c3cccnc3)n[nH]c2=S)c1	6	.	.	.	3.8	-3	1
CCn1c(SCC(=O)NCc2ccccc2)nnc1-c1cccnc1	5	2	-1	1904	0.0	2	-1
NC(=O)c1ccc(NC(=O)c2cc(S(=O)(=O)N3CCCCC3)ccc2N2CCOCC2)cc1	10	-7	.	?	6.1	-4	-3
Cc1c(C(=O)O)cc(C(C)(C)C)n1CCSCCO	1	-12	3	5810	3.2	3	1
Cc1cc(Cl)ccc1C(=O)C1CCCN(C(=O)CN2CCOC2=O)C1 (configuration not stated)	-2	-6	-4	6042	2.1	7	10
Cc1ccc(NC(=S)NNC(=O)c2nn(C)cc2Cl)cc1	9	-42	5	3709	6.5	.	.

Compound profiles, from the list above. Order of screens: ugtP null kill, PrP UTR inh, BJeLR viability, Bead autofluor, Sa RN4220 lethal, Mtb hypoxia inh, Mtb hypoxia inh growth
Results for O=[N+]([O-])c1ncccc1OCc1ccc(-c2ccccc2)cc1 = 89*, -20, 1, 7202, -1.1, -13, 0
Results for O=[N+]([O-])c1ccc(Cl)c(C=Nn2c(-c3cccnc3)n[nH]c2=S)c1 = 6, ., ., ., 3.8, -3, 1
Results for C[C@H]1COC(=O)[C@H](NC(=O)OCC2c3ccccc3-c3ccccc32)C/C=C\C[C@H](CC(=O)N(CCO)Cc2ccccc2)C(=O)N1 = -1, -13, ., 3834, -2.1, 3, 12
Results for CCn1c(SCC(=O)NCc2ccccc2)nnc1-c1cccnc1 = 5, 2, -1, 1904, 0.0, 2, -1
